Calb biofilm kill: mixture kills Candida albicans biofilm cells; C. albicans biofilm persisters + clotrimazole, fluorescence viability; primary screen in compound mixtures of four per well; inhibition, % at 7.6 µM; 0.02% of 120,000 active;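 active = inhibition above 30.3% in the primary screen of four-compound pools, then above 30% when the compound was retested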;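 note: compounds exposed to preformed 24 h biofilms for 48 h; the number belongs to the whole pool; some results filed as inactive read as strong as hits; inactives centre near 12; 0% = biofilm with clotrimazole alone and 100% = kill control; retested singly at about 60 µM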
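Test system: C. albicans CAF4-2 wild-type biofilms; buffer or medium: RPMI/MOPS medium, pH 7.0; schedule: 24 h biofilm formation, then 48 h compound exposure, 37 °C; detection: Alamar Blue fluorescence; measure: percent inhibition of biofilm viability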
Starred values were filed as active, the others as inactive. Only part of the results is shown; rates above refer to the full screens.

SMILES	Calb biofilm kill
O=C(NCc1cccnc1)c1ccc(COc2ccc(Cl)cc2Cl)o1	18
OCCC1CN(Cc2cc3c(cc2Cl)OCO3)CCN1C1CCCC1 (configuration not stated)	7
CN1/C(=C\C=C(/C#N)C(=O)Nc2ccccc2F)C(C)(C)c2ccccc21	22
CC(C)c1ccccc1NC(=S)N1CCN(Cc2ccc3c(c2)OCO3)CC1	10
Cc1nn(CCOc2ccc(Br)cc2)c(C)c1[N+](=O)[O-]	-4
Cc1nn(C2CCS(=O)(=O)C2)c(C)c1C=O (configuration not stated)	19
CCOC(=O)C1(CCCc2ccccc2)CCN(C(=O)CN2C(=O)CSC2=O)CC1	5
CCN1C(=O)C(CC(=O)Nc2c(C)cccc2C)Nc2cc(S(=O)(=O)N(C)C)ccc21 (configuration not stated)	13
COc1ccccc1/C=C/C=N/N1CCN(Cc2ccccc2)CC1	19
COc1ccc(C(CNC(=O)c2oc3ccc(Br)cc3c2C)N2CCCCC2)cc1 (configuration not stated)	3
Cc1ccn(-c2n[nH]c(C)c2[N+](=O)[O-])n1	9
CCC1CCCCN1S(=O)(=O)c1ccc(S(=O)(=O)N(Cc2ccccn2)CC2CCCO2)cc1 (configuration not stated)	10
Cc1noc(C)c1COC(=O)COc1ccc(C#N)cc1	14
Cc1ccc2c(c1)C(=C(C#N)C#N)C(=O)N2CCN1CCOCC1	10
CN1c2ccccc2N(C)C1(C)c1cccc2ccccc12	25
Cn1c(=O)c([N+](=O)[O-])c(NCc2ccccc2Cl)c2ccccc21	6
CN(C)c1ccc(C(=O)Nc2ccc(CN3CCS(=O)(=O)CC3)cc2)cc1	21
Cc1ccccc1OCCCn1c(CO)nc2ccccc21	17
O=C(Nn1c(SCc2ccc([N+](=O)[O-])cc2)nc2ccccc2c1=O)c1ccc(F)cc1	8
C/C(=N\NC(=O)COc1cccc(Cl)c1)c1ccc2c(c1)OCCO2	15
O=C(c1cc2cc(Br)ccc2o1)N1CCCC1	17
Cc1cc(OCC(=O)NC(C)(C)C)ccc1Cl	18
COC(C[C@@H]1O[C@@H]1C(=O)COCc1ccccc1)OC	14
O=C(Oc1ccc(NC(=O)c2cc3c(cc2Br)OCO3)cc1)c1ccccc1	21
Cc1ccc(C2=CSC3=NNC4(CCCCC4)NN23)cc1	14
O=C(CC1Sc2ccccc2NC1=O)NNC(=O)Nc1ccc(Cl)cc1 (configuration not stated)	12
NS(=O)(=O)c1ccc(NC(=S)N2CCN(c3ccccc3)CC2)cc1	15
COc1c(O)cc2c(c1O)C(=O)CC(c1ccccc1)O2 (configuration not stated)	14
Cc1ccc(SC(C)C(=O)NCCC2=CCCCC2)cc1 (configuration not stated)	19
COc1ccc(NS(=O)(=O)c2cc(NC(=O)CC(=O)c3ccc([N+](=O)[O-])cc3)ccc2C)cc1	30
Cc1ccc(-c2csc3ncn(CC#N)c(=O)c23)cc1	-6
Cc1ccc(NC(=O)COC(=O)/C=C/c2ccccc2)cc1S(=O)(=O)N1CCOCC1	6
O=C(CNC(=O)c1cccc(Br)c1)N/N=C/c1cc(Br)cc(Br)c1O	18
COc1ccc(/C=C2\SC(=NCc3ccccc3)NC2=O)cc1	8
COc1cc(NC(=O)COC(=O)CSc2ccc3ccccc3c2)c(C)cc1[N+](=O)[O-]	17
O=C(N/N=C/c1ccccn1)c1cc([N+](=O)[O-])cc([N+](=O)[O-])c1	17
C/C(=N\Nc1nccnc1Cl)c1ccc(F)cc1	18
CC(C)n1c(SCC(=O)Nc2nc3ccccc3s2)nc2c1c(=O)n(C)c(=O)n2C	20
O=C(N/N=C/c1ccco1)c1cccc([N+](=O)[O-])c1	6
Cc1nc2cc(F)ccc2n1C1CCN(C(=O)c2ccc(F)cc2F)CC1	12

Another view of some results above:
SMILES,Calb biofilm kill
COc1ccc(NS(=O)(=O)c2cc(NC(=O)CC(=O)c3ccc([N+](=O)[O-])cc3)ccc2C)cc1,30
Cc1ccc(-c2csc3ncn(CC#N)c(=O)c23)cc1,-6
Cc1ccc(NC(=O)COC(=O)/C=C/c2ccccc2)cc1S(=O)(=O)N1CCOCC1,6

Remaining list, next part.
SMILES	Calb biofilm kill
CCOC(=O)Cc1csc(NC(=O)/C=C/c2ccc(Br)o2)n1	5
O=C(Cc1ccccc1)N/N=C/c1cccn1-c1ccc([N+](=O)[O-])cc1	14
O=C(COC(=O)CCCNC(=O)c1ccc(Cl)cc1)Nc1cc(Cl)ccc1Cl	8
CC(=O)c1ccc(NC(=O)COC(=O)c2c3c(nc4ccccc24)/C(=C\c2cccs2)CCC3)cc1	9
C/C=C(\C)C(=O)N1CC2(CC(c3cccc(NC(=O)COc4ccc(Cl)cc4)c3)=NO2)C[C@@H]1C(N)=O (some centres not stated)	13
CCC(C(=O)Nc1ccc(OC)c(Cl)c1)c1ccccc1 (configuration not stated)	-7
Cc1nn2c(-c3ccccn3)ccnc2c1Cl	13
COc1ccc(NC(=O)CC2SC(N)=NC2=O)c([N+](=O)[O-])c1 (configuration not stated)	4
Cc1nc(-c2cccnc2)sc1C(=O)N/N=C/c1ccccc1Cl	10
Cc1ccsc1C(=O)OCC(=O)NCc1ccco1	-3
O=[N+]([O-])c1ccccc1/C=N\N1CCN(c2ccccc2)CC1	1
C=CCn1c(C)cc(C2=NNC(=NCc3ccccc3)SC2)c1C	17
CCOc1ccccc1NC(=O)Cn1c(=O)oc2ccccc21	22
O=C(Nn1c(C2CCCCC2)nc2ccccc2c1=O)c1cc(Cl)ccc1[N+](=O)[O-]	5
Cc1cc(C(=O)N/N=C/c2cc(N=Nc3ccccc3)ccc2O)n[nH]1	13
CC(=O)Nc1nnc(Cc2c[nH]c3ccccc23)s1	7
COc1ccc(NC(=O)C(CC(=O)O)C(C)c2ccccc2)cc1 (configuration not stated)	12
COc1ccc2cc(CO)c(Cl)nc2c1	4
N#Cc1cc(S(=O)(=O)c2ccc(F)cc2)c(N)[nH]c1=O	-9
Cc1cnc(CNC(=O)c2ccc(OC3CCN(C(=O)C4CC4)CC3)cc2)cn1	21
COc1cc(CN2CCCC(CO)(Cc3cccc(Cl)c3)C2)cc2c1OCO2 (configuration not stated)	7
Clc1cc(Cl)c2nc(N3CCOCC3)sc2c1	9
CCc1ccc(-c2ccc(SCC(=O)Nc3nnc(C)s3)nn2)cc1	17
O=C(OCn1nnc2ccccc2c1=O)c1cc(-c2ccccc2Cl)nc2ccccc12	2
COc1ccc(/C=N/NC(=O)c2nonc2N)cc1OC	24
CC(=O)/C=C(\C)Nc1ccccc1O	30
NS(=O)(=O)c1ccc(NC(=S)NCc2ccco2)cc1	21
Cc1ccc(Cc2ccc(C(=O)NNC(N)=S)o2)cc1	8
CC(=O)c1ccc(OCc2ncc(C(F)(F)F)cc2Cl)cc1	16
COc1ccc(NC(=S)N2CCCC2)cc1OC	9
O=C(CC(c1ccccc1)c1cc(Cl)ccc1O)N1CCCC1 (configuration not stated)	26
CN1C(C(=O)NCC2CC2)CC2Cn3c(nc4cc5ccccc5cc43)C21 (configuration not stated)	15
C=CCNC(=O)Cc1c(OC)ccc2cc(Br)ccc12	2
C=CCc1cccc(/C=N/NC(=O)c2ccccc2Br)c1O	6
Cc1ccc(/C=N/NC(=O)c2cccs2)s1	17
O=C(CSC(=S)N1CCSCC1)c1ccc(Cl)cc1	12
COc1ccc(CN2CCCC(C(=O)c3ccc(Cl)cc3)C2)cc1Cn1cccn1 (configuration not stated)	12
O=C(N/N=C\c1ccc(OCC(=O)N2CCCC2)cc1)C(=O)Nc1ccccc1F	6
N#CCCCn1c(O)c(N=NC(=O)C(O)c2ccccc2)c2ccccc21 (configuration not stated)	23
Cc1cccc(CSC(Nc2ccc(F)cc2)=C(C#N)C#N)c1	15

A different layout for 4 compounds above:
C/C(=N\NC(=O)COc1cccc(Cl)c1)c1ccc2c(c1)OCCO2
  Calb biofilm kill: 15

O=C(c1cc2cc(Br)ccc2o1)N1CCCC1
  Calb biofilm kill: 17

Cc1cc(OCC(=O)NC(C)(C)C)ccc1Cl
  Calb biofilm kill: 18

COC(C[C@@H]1O[C@@H]1C(=O)COCc1ccccc1)OC
  Calb biofilm kill: 14

Returning to the listing, repeating the 2 entries before the break.
SMILES	Calb biofilm kill
N#CCCCn1c(O)c(N=NC(=O)C(O)c2ccccc2)c2ccccc21 (configuration not stated)	23
Cc1cccc(CSC(Nc2ccc(F)cc2)=C(C#N)C#N)c1	15
CC(C)(C)c1cc(C(=O)Nc2cccc3ccccc23)ccn1	13
C=C(C)CN=C1NN=C(c2cc(C)n(-c3ccc(C)cc3)c2C)CS1	18
CCCOc1ccc(C(=O)O)cc1	16
O=c1[nH]c(-c2ccccn2)nc(C(F)(F)F)c1Br	14
COC(=O)C1=CC(C(=O)c2cccs2)=NN(c2ccc(OC)cc2)C1C(=O)OC (configuration not stated)	9
CCOC(=O)c1cc2cc(OC)ccc2nc1C	11
COc1ccc(NC(=O)C2CCCN(S(=O)(=O)c3c(C)[nH]c(=O)[nH]c3=O)C2)cc1OC (configuration not stated)	11
Cn1c(CO)cnc1SCC(=O)c1ccc(Cl)cc1	20
CC(C)NC(=O)CCn1nc(-c2ccc(Cl)cc2)c2ccccc2c1=O	21
O=C(Nc1cccc(Cl)c1)Nc1cccc(Cl)c1	8
O=C(Nc1ccc2nc3n(c(=O)c2c1)CCCC3)c1cc([N+](=O)[O-])ccc1F	18
C=CCc1c(C)nc(-c2ccccc2)nc1N/N=C(\C)c1ccc(N)cc1	-7
O=c1c2c(nc3cc(-c4ccc(F)cc4)[nH]n13)CCC2	-10
CN(C)c1ccc(N=Nc2ccc(S(=O)(=O)O)cc2)c2ccccc12	12
CN(CC(=O)NCCc1ccccc1)S(=O)(=O)c1cnc[nH]1	11
O=C(Nc1ccc(Oc2cccc(C(F)(F)F)c2)nc1)c1cccs1	7
CCN(CC)CCN(C(=O)c1ccc(Br)s1)c1nc2cc3c(cc2s1)OCCO3	20
Cc1cc(C)c(C(=O)CSc2nnc(C)c(=O)[nH]2)cc1C	19
C=CCSc1nc2ccsc2c(=O)n1-c1cccnc1	-6
CC1(c2cccc([N+](=O)[O-])c2)CC(C)(C)N(C(=O)c2ccccc2)c2ccccc21 (configuration not stated)	10
COc1cc(/C=C/C(=O)O)cc(S(=O)(=O)NCCCC(=O)O)c1OC	11
COc1cccc(CNC(=O)CCC2CCCN(c3cc(C)nc(N4CCCC4)n3)C2)c1 (configuration not stated)	2
O=C(c1ccc(CNc2c(N3CCCC3)c(=O)c2=O)cc1)N1CCN(C2CCCCC2)CC1	16
COc1ccc(C2N(c3ccc(Cl)cc3)N=C(C(C)=O)N(C)N2C(C)=O)cc1 (configuration not stated)	0
CCOC(=O)c1c(C)[nH]c(C(=O)/C(C#N)=C/c2ccc(OC(F)F)c(OC)c2)c1C	17
N#Cc1c(-c2ccccc2)nc(SCC(=O)Nc2nnc(C(F)(F)F)s2)[nH]c1=O	12
O=C(COC(=O)c1ccccc1-c1nc2ccccc2s1)NC1CCS(=O)(=O)C1 (configuration not stated)	20
CCCN(CCC)CCCNC(=S)Nc1ccc2nc3n(c(=O)c2c1)CCCCC3	11
NC(N)=NS(=O)(=O)c1ccc(NC(=S)NC(=O)c2ccccc2)cc1	12
CC(C)COc1ccc(Br)cc1CNC(C)(C)C	11
CCN1CCCC(Sc2nc3c([nH]2)c(=S)n(C)c(=O)n3C)C1 (configuration not stated)	13
O=C1/C(=C/c2ccccc2)N=C(N2CCOCC2)N1c1cccc(Cl)c1	11
Cc1ccc(S(=O)(=O)N2CCC(C)CC2)c([N+](=O)[O-])c1	15
CC(=O)Nc1ccc(NC(=O)C2CC(=O)Nc3ncnn32)cc1 (configuration not stated)	19
CCOc1ncccc1C(=O)OCC(=O)Nc1cc(S(=O)(=O)N2CCOCC2)ccc1C	16
COc1ccc(CCNC(=O)Nc2cccc([N+](=O)[O-])c2)cc1	6
Cc1ccc(OCC(=O)c2c[nH]c3ccccc23)c([N+](=O)[O-])n1	17
Cc1ccc(NC(=S)N(CCC(C)C)C(C)c2ccncc2)c(Cl)c1 (configuration not stated)	19
O=C(Cc1cccc2ccccc12)N/N=C/c1ccc2cccc(O)c2n1	22
COc1ccc2[nH]c(C)c(CCNC(=S)Nc3cc(C)ccc3C)c2c1	11

An excerpt from further up, for reference:
SMILES	Calb biofilm kill
CCOc1ncccc1C(=O)OCC(=O)Nc1cc(S(=O)(=O)N2CCOCC2)ccc1C	16
COc1ccc(CCNC(=O)Nc2cccc([N+](=O)[O-])c2)cc1	6
Cc1ccc(OCC(=O)c2c[nH]c3ccccc23)c([N+](=O)[O-])n1	17
Cc1ccc(NC(=S)N(CCC(C)C)C(C)c2ccncc2)c(Cl)c1 (configuration not stated)	19
O=C(Cc1cccc2ccccc12)N/N=C/c1ccc2cccc(O)c2n1	22
COc1ccc2[nH]c(C)c(CCNC(=S)Nc3cc(C)ccc3C)c2c1	11

Next part
SMILES	Calb biofilm kill
COc1ccc(NS(=O)(=O)c2cc(NC(=O)Cn3cnc4c3c(=O)n(C)c(=O)n4C)ccc2C)cc1	43
CCOc1ccc(N(C(C)=O)c2nc(C)cc(C)c2C#N)cc1	6
O=C(CSc1nc2c(sc3ccccc32)c(=O)n1CCCN1CCCC1)NCc1ccccc1	11
C[C@]1(C(=O)NCCCNc2ncc(C(F)(F)F)cc2Cl)C=C[C@@H](Cc2ccccc2)N1C(=O)c1ccccc1	-3
O=C(Nc1ccc2c(c1)OCO2)C1CC(=O)N(c2ccc3c(c2)OCCO3)C1 (configuration not stated)	9
CN1CCN(CC(=O)NC23CC4CC(CC(C4)C2)C3)CC1	20
Cc1cnc(CN2CCCC(C(=O)c3ccc4c5c(cccc35)CC4)C2)[nH]1 (configuration not stated)	13
Cn1nnnc1SCc1nc2scc(-c3ccccc3)c2c(=O)[nH]1	24
Cc1onc(C(=O)N2C(C)CCCC2C)c1[N+](=O)[O-] (configuration not stated)	17
O=C(O)CSc1nc(-c2ccc(Cl)cc2)nc2c1oc1ccccc12	9
COCCNC(=S)N1CCN(Cc2cccc(OC)c2)CC1	5
